StopGo reporter – FMDV 2A StopGo reporter, luciferase signal | Potency, µM (series often up to 57.9 µM), without a hit: top-dose signal change, negative = less light | human cells with a luciferase reporter of 2A StopGo recoding; control for the full effect not named in the record | AID 1159524 | hit rate 1.2% among 410,000; active = well fitted falling curve with a large enough effect; inconclusive = small, poorly fitted or top-dose-only effect; inactive = no such curve, though single readings can be large or run the other way; tested in HEK293T cells; also: % is scaled to controls: 0 for no effect and ±100 for the full control effect; nearly all actives have a fitted effect of over 45% in size; luciferase light after 4 h
Cruzain inh noDet – inhibitors of Trypanosoma cruzi cruzain without detergent; hit rate 2.3% among 200,000; P25779; purified cruzain, Z-FR-AMC fluorescence, no detergent; Potency, µM, for inactives: max response, negative = inhibition, hits mostly inhibitors; AID 1476; active = well fitted curve in the direction sought with a large enough effect; inconclusive = small, poorly fitted or top-dose-only effect, or another doubt; inactive = no such curve, though single readings can be large; an effect the other way counts as inactive or inconclusive;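 also: plate controls were enzyme without inhibitor for no effect and buffer without enzyme for full effect; nearly all actives have a fitted effect of over 40% in size; top concentration of the series not given in the record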
Target sequence (P25779 123-467 limits assumed): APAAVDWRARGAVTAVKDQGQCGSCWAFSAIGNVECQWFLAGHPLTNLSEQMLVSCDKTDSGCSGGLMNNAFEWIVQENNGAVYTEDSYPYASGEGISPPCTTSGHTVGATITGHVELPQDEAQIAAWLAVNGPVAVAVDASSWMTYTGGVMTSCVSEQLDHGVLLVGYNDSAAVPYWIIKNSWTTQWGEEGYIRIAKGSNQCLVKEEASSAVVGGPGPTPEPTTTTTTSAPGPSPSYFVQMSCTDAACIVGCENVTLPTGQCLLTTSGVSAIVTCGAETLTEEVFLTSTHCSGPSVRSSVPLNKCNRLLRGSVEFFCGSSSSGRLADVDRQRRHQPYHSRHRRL
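Detergent-free condition (0.00005% Triton X-100) in acetate buffer pH 5.5 with DTT. 1.5 nM enzyme and compound were pre-mixed 15 min, then 2 uM Z-FR-AMC substrate added; reaction progress from fluorescence change between first and third reads (60 s).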
RE007 growth inh – less growth of the S. pombe RE007 Vpr strain. hit rate 0.21% among 360,000. Potency, µM (top dose mostly 92.2 µM), for inactives: at the highest dose activity change, negative = less growth. S. pombe RE007 Vpr strain, BacTiter-Glo ATP luminescence, 24 h; control for the full effect not named in the record; active = well fitted falling curve with a large enough effect; inconclusive = small, poorly fitted or top-dose-only effect; inactive = no such curve, though single readings can be large or run the other way;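 also: % is scaled to controls: 0 for no effect and ±100 for the full control effect; nearly all actives have a fitted effect of over 50% in size; the assay follows cell death caused by Vpr and the record does not say whether a fall means rescue or toxicity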
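Fission yeast strain RE007, carrying one chromosomally integrated HIV-1 vpr copy, was seeded at OD 0.01 in PMG+AL medium with 23 nL pinned compound. After 24 h at 30 °C and 99% humidity, viability was read by BacTiter-Glo luminescence.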
LASV entry inh – inhibitors of Lassa virus binding or cell entry. Lassa virus pseudotype entry inhibition, cell reporter; control for the full effect not named in the record. Potency, µM (doses to about 37.9 µM), without a hit: at the top dose activity change, negative = inhibition, usual class: inhibitors. hit rate 1.2% among 300,000. AID 540256; active means well fitted inhibition curve with a large enough effect; inconclusive means small, poorly fitted or top-dose-only effect, or effect the other way; inactive means flat fitted curve, though single readings scatter; tested in HEK293 cells; also: % is scaled to controls: 0 for no effect and ±100 for the full control effect; nearly all actives have a fitted effect of over 50% in size; luciferase read-out
Cruzain Triton – blocks cruzain activity in presence of Triton detergent; Potency, µM, for inactives: max response, negative = inhibition, most hits filed as inhibitors; hit rate 0.43% among 200,000; P25779; purified cruzain, Z-FR-AMC fluorescence, 0.01% Triton; AID 1478; active = well fitted curve in the direction sought with a large enough effect; inconclusive = small, poorly fitted or top-dose-only effect, or another doubt; inactive = no such curve, though single readings can be large; an effect the other way counts as inactive or inconclusive;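 also: plate controls were neutral wells for no effect and buffer without enzyme for full effect; nearly all actives have a fitted effect of over 40% in size; top concentration of the series not given in the record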
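In this qHTS format, compounds are incubated with 1.5 nM cruzain for 15 min at room temperature before 2 uM Z-FR-AMC is added. Release of AMC is followed at 360/450 nm, and progress is taken as the 60 s fluorescence difference.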
NS1 inh – inhibitors of influenza NS1 protein function; hit rate 0.4% among 270,000; Potency, µM (doses to about 46.1 µM), inactives show at the highest dose activity, positive = more growth; S. cerevisiae slowed by influenza A NS1, growth recovery by OD600; AID 2326; also: actives are rising curves; nearly all actives have a fitted effect of over 50% in size
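S. cerevisiae expressing influenza A NS1, grown in glucose, washed, then diluted 1:100 into pH 6.0 -URA galactose medium with 23 nl compound. Growth recovery read as OD600; NS1-free strain serves as control.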
SARS PLpro yeast – blocks SARS-CoV papain-like protease in a yeast assay | hit rate 0.19% among 330,000 | AID 485353 | S. cerevisiae expressing SARS-CoV PLpro, growth rescue; control for the full effect not named in the record | Potency, µM (highest dose often 32.9 µM), for inactives: at the highest dose activity, positive = growth rescue; also: 0% is about no effect; nearly all actives have a fitted effect of over 55% in size; growth read by luminescence after 48 h
MARV entry inh – blocks Marburg virus binding to or entry into cells; hit rate 1.8% among 300,000; Marburg virus pseudotyped entry inhibition, cell reporter; control for the full effect not named in the record; about a third of the inactives were read at about 46 µM; Potency, µM (doses to about 37.8 µM), without a hit: at the highest dose activity change, negative = inhibition, actives largely listed as inhibitors; active = well fitted inhibition curve with a large enough effect; inconclusive = small, poorly fitted or top-dose-only effect, or effect the other way; inactive = flat fitted curve, though single readings scatter; tested in HEK293 cells; about a fifth of its hits are not listed in these tables; also: % is scaled to controls: 0 for no effect and ±100 for the full control effect; luciferase read-out
The depositor's hits bear a star; ? = inconclusive; . = not tested or not shown; & = joins results of further samples; [ ] = remark or other dose. Unless noted, calls follow the shape of the dose curve; as a rule, active means well fitted rising curve with a large enough effect; inconclusive means small, poorly fitted or top-dose-only effect; inactive means no such curve, though single readings can be large or run the other way. Potency is read from the fitted curve at half-maximal effect. Compounds as they come. About 4.5% of those tested had a hit in this group.

smiles | StopGo reporter | Cruzain inh noDet | RE007 growth inh | LASV entry inh | Cruzain Triton | NS1 inh | SARS PLpro yeast | MARV entry inh
COc1ccc(C(CNC(=O)C(Cc2ccccc2)NC(N)=O)N(C)C)cc1 (stereo not given) | -7.1% | . | 2.3% | . | . | 3.3% | -1.5% | .
COC(=O)Nc1ccc(S(=O)(=O)N2CCC(C(=O)N3CCC(C)CC3)CC2)cc1 | -22.4% | . | -7.4% | 6.1% | . | . | -2.7% | 15.3%[46.1 µM]
COc1ccccc1NC(=O)C1=C(C)Nc2nc(-c3ccco3)nn2C1c1ccccc1F (stereo not given) | -11.1% | -2.0% | . | -25.8%[46.1 µM] | -5.9% | . | . | -5.4%[46.1 µM]
CN(C)c1ccc(C=C(c2nnnn2-c2ccccc2)c2nnnn2-c2ccccc2)cc1 | -3.3% | -24.7% | -20.6% | ? | -4.5% | 3.7% | -14.0% | ?
Cc1ccc(CNC(=O)c2c(-c3ccc(Br)cc3)noc2C)o1 | -24.5% | -16.0% | . | -12.8%[46.1 µM] | 0.6% | . | . | .
COC(=O)c1ccc(Cl)c(NC(=O)Cc2ccccc2[N+](=O)[O-])c1 | -2.2% | -3.1% | 3.2% | -13.3% | -1.1% | 6.8% | 18.6% | -20.1%
COC(=O)/C=c1\sc2n(c1=O)C(C)=CC(C)(C)N=2 | -21.6% | 12.9% | -6.3% | -6.0% | -4.1% | -0.3% | 1.5% | -4.7%
O=[N+]([O-])c1cc(Br)c(O)c(/C=N/Nc2nc3ccccc3s2)c1 | -27.6% | . | 13.6% | 12.3%[46.1 µM] | . | . | 0.9% | 10.3%[46.1 µM]
CCn1cc(C(=O)O)c(=O)c2cnc(N3CCN(C(=S)NC(=O)c4ccc(Br)cc4)CC3)nc21 | -20.7% | . | 10.8% | . | . | 5.8% | 0.6% | .
CCCCc1nc2ccccc2n2c(-c3ccc(OC)cc3)c3c(=O)n(C)c(=O)n(C)c3c12 | -27.0% | -4.9% | . | -24.2%[46.1 µM] | -2.5% | . | . | 30.5%[46.1 µM]
COc1ccc(C(=O)N/N=C/c2ccc(OC)c(OS(=O)(=O)c3ccccc3)c2)cc1 | -11.3% | -26.1% | -11.5% | ? | -6.2% | -1.8% | -6.6% | ?
Cc1ccc2c(c1)-c1cc(C)ccc1C2=O | 5.3% | . | 5.9% | -2.4%[46.1 µM] | . | . | . | 3.2%[46.1 µM]
Cc1onc(-c2c(F)cccc2Cl)c1C(=O)ONC(=O)c1ccco1 | -15.7% | . | 14.1% | . | . | -2.1% | -2.8% | .
O=C(COC(=O)COc1ccc(Cl)cc1)NC1CCCCCC1 | -9.9% | . | 5.1% | 26.6% | . | . | -1.7% | -5.0%
COc1ccc(/C=C/C(=O)OCC(=O)c2ccc3c(c2)NC(=O)CO3)cc1 | -25.3% | . | 8.3% | . | . | 4.3% | -0.3% | .
CC(=O)c1ccc(NC(=O)C2(c3ccccc3)CC2(Cl)Cl)cc1 (stereo not given) | 11.1% | . | 4.5% | -19.5% | . | -9.9% | -1.8% | ?
COc1cccc(NC(=O)CCC(=O)N2Cc3ccccc3Oc3ncccc32)c1 | -15.8% | -0.4% | . | 10.1%[46.1 µM] | -2.0% | . | . | .
CC(C)Cn1c(CN2C(=O)c3ccccc3C2=O)nc2ccccc2c1=O | ? | -1.9% | 8.9% | 5.3% | 4.1% | 4.8% | 8.1% | ?
COC1=CC(=O)OC(/C=C/c2ccccc2)C1 (stereo not given) | 3.1% | ? | -5.0% | 15.0% | 2.7% | -2.2% | 10.6% | 18.4%&18.4%&18.4%&18.4%
Cc1cc(C)c(C)c(S(=O)(=O)NCCCn2ccnc2)c1C | 50.6%[activator] | . | ? | 0.7%[46.1 µM] | . | 7.9% | 0.9% | 5.1%[46.1 µM]
COc1ccccc1-n1c(-c2ccc(F)cc2)coc1=O | -10.3% | . | -3.4% | 13.1% | . | 10.3% | -0.1% | ?
CN1CCN(/C=N/c2c(C#N)cnn2Cc2ccccc2)CC1 | -10.7% | 2.6% | -15.9% | -20.2% | 1.8% | 7.7% | -0.4% | -2.3%
O=C(CSc1ncc(CO)n1Cc1ccc(F)cc1)NCc1ccco1 | -18.2% | 8.7% | . | 16.0%[46.1 µM] | -1.3% | . | . | .
NC(=O)SCC(=O)Nc1ccc(Cl)c(Cl)c1 | ? | -2.5% | 22.3% | ? | -11.3% | -120.7% | -3.8% | ?
S=c1[nH]nc(-c2ccccc2)n1/N=C/C=C/c1ccco1 | -0.8% | 2.4% | 7.3% | ? | -8.4% | 12.4% | ? | 4.9%
COc1ccc(OC)c(/C=C2\SC(=S)N(N3CCOCC3)C2=O)c1 | ? | . | 3.6% | 22.5%[46.1 µM] | . | -1.4% | 1.2% | -1.0%[46.1 µM]
O=C(CSc1nnc(CCc2ccccc2)n1-c1ccc(Cl)cc1)c1ccccc1 | -19.1% | ? | 5.8% | ? | -8.7% | ? | 21.7% | -16.7%
O=C(CSc1ccc(-c2nc3ccccc3[nH]2)cn1)Nc1ccc2c(c1)OCCO2 | . | 0.4% | -1.8% | 14.8% | -5.7% | 2.1% | 1.9% | 24.8%
COc1ccc(OC)c(-c2cc(C(=O)N/N=C(\C)c3cccnc3)c3ccccc3n2)c1 | -11.8% | . | -7.9% | 11.3%[46.1 µM] | . | -3.4% | -3.2% | -15.6%[46.1 µM]
CCN(CC)CCn1c(=S)[nH]c2ccc(Cl)cc2c1=O | 13.2% | 4.5% | 0.3% | 4.3% | -4.7% | 0.6% | 9.6% | -27.4%
COc1cccc(CNC(=O)CSc2nnc3c(n2)[nH]c2ccccc23)c1 | ? | . | 0.8% | . | . | -3.1% | 7.2% | ?
c1ccc2oc(Cc3ccc(Cc4nc5ccccc5o4)cc3)nc2c1 | ? | 3.6% | 1.6% | ? | -4.5% | 2.4% | -12.9% | ?
O=[N+]([O-])c1ccc(OCC(O)CNC2CCCC2)cc1 (stereo not given) | -19.9% | . | -5.5% | 17.2%[46.1 µM] | . | ? | 0.2% | -13.4%[46.1 µM]
Cc1cccc(-c2noc(CN(C)C(=O)COc3ccccc3)n2)c1 | -5.4% | . | -8.7% | -3.8%[46.1 µM] | . | -25.5% | -2.8% | ?
Cc1c(NC(=O)C(C)N2CC(C)OC(C)C2)c(=O)n(-c2ccccc2)n1C (stereo not given) | -27.7% | 13.2% | 28.5% | -0.9% | -3.5% | 0.1% | 4.3% | 6.9%
CC1=CC(=NOC(=O)/C=C/c2ccccc2)C=C(C)C1=O | -9.1% | 2.51µM* | -28.2% | 5.1% | 2.24µM* | -17.4% | -2.2% | -13.2%[46.1 µM]
C=CCn1c(=NC(=O)c2ccc(S(=O)(=O)N3CCc4ccccc4C3)cc2)sc2cc(S(N)(=O)=O)ccc21 | 0.7% | -9.1% | -4.2% | ? | -4.3% | 11.7% | 9.1% | ?
Fc1cccc(-c2cc3nc(-c4ccccc4)cc(N4CCC5(CC4)OCCO5)n3n2)c1 | -26.7% | ? | 2.2% | ? | ? | 7.6% | -15.4% | ?
O=C(NCCN1CCOCC1)c1ccc(CS(=O)c2ccccc2Cl)o1 (stereo not given) | 4.7% | . | 1.0% | . | . | 3.2% | 1.8% | .
Cc1ccc(C2=NN(Cc3nnc(-c4ccccc4)o3)C(=O)SC2)cc1 | -11.0% | -6.1% | 5.2% | -28.2% | -8.9% | -11.3% | -30.3% | -4.9%
O=C(NC(=S)N1CCN(Cc2ccccc2)CC1)c1ccccc1 | -18.6% | -7.0% | 3.5% | 0.2% | -1.3% | 10.0% | 5.8% | ?
CCOc1ccccc1NC(=O)CSc1nc2c(oc3ccccc32)c(=O)n1-c1ccc(F)cc1 | -5.6% | 5.3% | . | . | -2.8% | . | . | ?
COc1ccccc1NC(=O)C(=N\O)/C(C)=N/O | -28.1% | 6.3% | 6.1% | 11.2% | -1.6% | 11.8% | 3.9% | 25.8%
COCCCC1CCN(C(=O)C2CCC(=O)N(CCc3ccccc3)C2)CC1 (stereo not given) | 26.0% | . | -12.0% | 1.1% | . | -3.8% | 7.2% | 18.3%
CSCCC(NC(=O)c1ccccc1Cl)C(=O)Nc1ccncc1 (stereo not given) | -9.7% | . | -9.9% | -3.6% | . | . | 2.5% | -11.6%

The closing 2 entries of the part before are carried over, then new ones follow.
smiles | StopGo reporter | Cruzain inh noDet | RE007 growth inh | LASV entry inh | Cruzain Triton | NS1 inh | SARS PLpro yeast | MARV entry inh
COCCCC1CCN(C(=O)C2CCC(=O)N(CCc3ccccc3)C2)CC1 (stereo not given) | 26.0% | . | -12.0% | 1.1% | . | -3.8% | 7.2% | 18.3%
CSCCC(NC(=O)c1ccccc1Cl)C(=O)Nc1ccncc1 (stereo not given) | -9.7% | . | -9.9% | -3.6% | . | . | 2.5% | -11.6%
Cc1ccc(C(=O)NC2CC(C)(C)NC(C)(C)C2)cc1S(=O)(=O)N1CCCCC1 | -3.9% | . | -8.0% | 1.1% | . | . | -1.6% | ?
Cc1cccc(C2=NN(c3ccccc3)[C@H](CO)[C@H]2c2ccc(F)cc2)c1 | -15.0% | ? | 5.7% | . | -13.2% | . | -77.5% | .
Cc1ccc(Cn2ccn(CC(=O)Nc3ccccc3C(F)(F)F)c(=O)c2=O)cc1 | 0.0% | ? | . | ? | -8.1% | . | . | .
Cc1cc(C)cc(NC(=S)NCCCO)c1 | -0.7% | 13.3% | 7.7% | -1.7% | -4.6% | -2.1% | 6.4% | -18.2%

Rewritten with two lines to a compound: part of the list above.
Each structure is followed by: StopGo reporter, Cruzain inh noDet, RE007 growth inh, LASV entry inh, Cruzain Triton, NS1 inh, SARS PLpro yeast, MARV entry inh
> O=C(NC(=S)N1CCN(Cc2ccccc2)CC1)c1ccccc1
→ -18.6%, -7.0%, 3.5%, 0.2%, -1.3%, 10.0%, 5.8%, ?
> CCOc1ccccc1NC(=O)CSc1nc2c(oc3ccccc32)c(=O)n1-c1ccc(F)cc1
→ -5.6%, 5.3%, ., ., -2.8%, ., ., ?
